Source: PubChem
CSC inhib = cancer stem cell viability inhibitors, primary screen, luminescence; actives 1.1% (n = 300,000); AID 2717, 2010; inhibition, % at 7.5 µM; cancer stem cell-like cells viability;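 active = mean at 75% or more and at least half the replicates too; tested in HMLE shEcad cells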;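 also: 0% = median of negative and 100% = median of positive control wells; the first replicate is given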
HIV Env fusion = inhibitors of HIV-1 Env-driven cell-cell fusion, primary screen, HeLa-JRFL effector, CEM21 target cells, luciferase; inhibition, % at 12.3 µM; actives 1.1% (n = 360,000); AID 651610, 2012;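 active = mean replicate inhibition score of at least 50 and every replicate individually at or above 50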;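 also: 0% = plate neutral controls and 100% = maraviroc near 300 nM; one replicate is shown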
PABP FP inh = PABP poly(A) RNA binding inhibitors, primary screen, biochemical, fluorescence polarization, uHTS | inhibition, % at 35 µM | Polyadenylate-binding protein 1 (Homo sapiens), P11940 | actives 1% (n = 290,000);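 active = 50% or more with normal probe brightness, or confirmed in later tests; about a fifth of its hits are not listed in these tables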;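 also: calls also rest on retests at 20 µM and on dose response follow-up; controls were probe without protein and protein plus probe with vehicle; some compounds called inactive have numbers as strong as hits; many hits fall short of the cut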
Yeast UUG start = modulators of yeast start codon fidelity, primary screen, whole organism, S. cerevisiae, single point, plate reader. S. cerevisiae UUG-firefly luciferase reporter, luminescence/redox ratio. activity score, % at 18.7 µM. actives 0.13% (n = 350,000);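 active = replicate mean at a twofold rise or more, about +100% in these data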;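 also: firefly luciferase made from a UUG start codon reports start codon fidelity; reporter light over untreated wells divided by growth signal over untreated wells; some hits fall short of that in this replicate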
eIF4H FP inh = human eIF4H binding inhibitors, primary screen, translation initiation inhibitor project, biochemical, uHTS, fluorescence polarization. eIF4H fluorescence polarization binding assay. actives 0.94% (n = 290,000). Eukaryotic translation initiation factor 4H (Homo sapiens), Q15056. inhibition, % at 35 µM. AID 2012, 2009;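 active = 50% or more with normal probe brightness, or confirmed in later tests; about a fifth of its hits are not listed in these tables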;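 also: calls also rest on retests at 20 µM and on dose response follow-up; 0% = protein and probe with vehicle and 100% = probe without protein; strong numbers were not always called active; many hits fall short of the cut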
MT1-MMP act inh = blockers of MT1-MMP proenzyme processing, primary screen, HT1080 RFP-PRO-GFP cells, GFP/RFP fluorescence | Matrix metalloproteinase-14 (Homo sapiens), P50281 | GFP/RFP ratio fluorescence, overnight; percent of plate control window, DMSO zero | GFP/RFP ratio change, % at 20 µM | actives 0.061% (n = 360,000) | AID 651647, 2012;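 active = GFP/RFP ratio change of at least 30% with cell ATP level not reduced by more than half and red fluorescence within 50% of control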; also: strong numbers were not always called active
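Assay system: HT1080 RFP-PRO-GFP cells. Benchmarks: DMSO vehicle wells and RFP-L50D-GFP reporter cell wells. Times: overnight cell settling, then overnight compound exposure, 37 °C, 5% CO2. Compound: 20 µM single dose, 1% DMSO. Read-out basis: GFP/RFP fluorescence ratio.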
Rce1 inhib = yeast Rce1p protease inhibitors, primary screen, biochemical, fluorescence, cell-free homogeneous; CAAX prenyl protease 2 (Saccharomyces cerevisiae (strain ATCC 204508 / S288c)), Q03530; yeast membranes, quenched prenylated peptide cleavage fluorescence; calls only; actives 0.27% (n = 290,000); AID 2563, 2010;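 active = fall in fluorescence gain of 50% or more versus controls, with final raw signal at or below 3038400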;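 also: plate controls were neutral control wells for no effect and wells lacking membranes for full effect; tested at 10 µM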
Target sequence (Q03530 whole entry, looked up): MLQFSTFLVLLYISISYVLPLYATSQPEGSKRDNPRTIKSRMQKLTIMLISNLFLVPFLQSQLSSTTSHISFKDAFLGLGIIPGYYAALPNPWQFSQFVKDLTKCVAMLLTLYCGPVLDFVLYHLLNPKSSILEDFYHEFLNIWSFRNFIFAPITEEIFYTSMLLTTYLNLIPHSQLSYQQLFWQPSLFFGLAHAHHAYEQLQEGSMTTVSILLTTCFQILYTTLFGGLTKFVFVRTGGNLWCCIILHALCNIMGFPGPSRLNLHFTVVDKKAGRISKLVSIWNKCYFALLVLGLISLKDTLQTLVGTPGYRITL
eIF4H FP inh retest = recorded beside eIF4H FP inh, whose call it bears; inhibition, %; compound at 20 µM; confirmation average;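 mean of two retest wells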
PABP FP inh retest = further read-out of PABP FP inh, marked with its call; inhibition, %; compound at 20 µM; confirmation repeats;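 mean of two retest wells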
MT1-MMP act inh RFP = further read-out of MT1-MMP act inh, marked with its call; RFP signal change, %; measured here: RFP expression control read;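 0 = vehicle wells; hits needed this value within 50% of zero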
Numbers without * were called inactive; i = inactive; . = no result given.

Start of the listing, in advance:
SMILES	CSC inhib	HIV Env fusion	PABP FP inh	Yeast UUG start	eIF4H FP inh	MT1-MMP act inh	MT1-MMP act inh RFP	Rce1 inhib	others
COC(=O)[C@H](CC(C)C)NC(=O)N1CCC(C)CC1	2.6	16.9	4.3	.	-0.7	-0.1	-0.1	i
O=C(COC(=O)c1ncc(Cl)c(Cl)c1Cl)NC(=O)c1ccccc1	8.7	.	.	-10.8	.	-2.1	2.5	i

The list itself, previewed entries included:
SMILES	CSC inhib	HIV Env fusion	PABP FP inh	Yeast UUG start	eIF4H FP inh	MT1-MMP act inh	MT1-MMP act inh RFP	Rce1 inhib	others
COC(=O)[C@H](CC(C)C)NC(=O)N1CCC(C)CC1	2.6	16.9	4.3	.	-0.7	-0.1	-0.1	i
O=C(COC(=O)c1ncc(Cl)c(Cl)c1Cl)NC(=O)c1ccccc1	8.7	.	.	-10.8	.	-2.1	2.5	i
CC(C)[C@H](NC(=O)c1ccccc1Cl)C(=O)OCC(=O)NC(=O)NCc1ccco1	-17.7	9.6	.	-4.0	.	-1.2	-0.9	.
O=C(Nc1ccc(Oc2ccc3c(c2)C(=O)N(c2ccc(O)cc2)C3=O)cc1)c1cccs1	-8.4	-4.2	-9.7	.	-5.0	-1.7	-7.8	i
Cc1c(CCC(=O)NCCCCCC(=O)O)c(=O)oc2cc3occ(-c4ccccc4)c3cc12	2.2	-1.2	49.2*	11.2	72.1*	6.0	6.3	i	eIF4H FP inh retest=91.5*;PABP FP inh retest=67.0*
O=C1C(=O)c2ccccc2C(O)=C1c1cccc([N+](=O)[O-])c1	1.4	7.1	12.8	-12.2	0.7	14.6	4.2	i
CCOc1ncccc1C(=O)OCC(=O)c1ccccc1	-9.0	-4.5	-0.8	.	-3.7	-0.1	-2.8	i
O=S(=O)(c1cccc(COc2c(Cl)cccc2Cl)c1)N1CCOCC1	-2.4	.	.	.	.	-6.8	-3.3	i
Nc1nc(SCc2ccc(Cl)cc2Cl)n[nH]1	-5.1	.	-9.4	-10.9	-9.7	4.9	5.0	i
C/C=C/C(=O)Nc1cccc(C2=NOC3(C2)C[C@@H](C(N)=O)N(C(=O)c2cc([N+](=O)[O-])cc([N+](=O)[O-])c2C)C3)c1 (stereo partly specified)	-6.3	-21.3	0.7	0.1	-6.1	1.9	2.8	i
CCN(C(=O)Cn1c(=O)n(-c2cc(OC)c(OC)c(OC)c2)c(=O)c2ccccc21)c1cccc(C)c1	-10.5	1.7	1.2	.	7.3	-1.1	0.2	i
O=C(c1ccco1)N1CCN(C(=O)c2cnn(-c3cccc(F)c3)c2C2CCNCC2)CC1	-4.6	5.9	-0.1	-12.7	-0.8	3.1	4.0	i
COc1ccc(S(=O)(=O)NC2(C(F)(F)F)N=C(c3ccccc3)NC2=O)cc1 (stereo unspecified)	11.3	0.8	12.2	.	7.9	1.3	6.4	i
CC(C)[C@H](NC(=O)c1ccc(C(C)(C)C)cc1)C(=O)N1CCN(Cc2ccc3c(c2)OCO3)CC1	.	42.3	.	-8.9	.	-6.3	-23.3	.
OC[C@H]1O[C@@H](Oc2ccc(O)cc2)[C@H](O)[C@@H](O)[C@@H]1O	.	7.1	.	-4.6	.	-2.0	1.3	.
CN(c1ccccc1)S(=O)(=O)c1cccc(C(=O)NC2CCCC2)c1	-3.3	2.2	.	9.8	.	1.6	-6.4	.
CC(=O)Nc1ccc(SCC(=O)N(C)CC(=O)Nc2ccccc2Cl)cc1	-11.0	-5.8	.	-24.5	.	-0.6	0.4	.
COC(=O)c1sc(NC(=O)C(C)C)c(C(=O)OC)c1C	5.1	.	5.8	-17.7	1.1	-3.7	-2.4	i
Cc1ccc2nc(=O)c(NNc3ccccc3)cnc2c1	.	17.5	6.4	.	2.0	7.6	1.0	.
CN(C)CCN(C(=O)C1CCN(S(=O)(=O)c2cccs2)CC1)c1nc2ccc(F)cc2s1	.	1.0	.	-15.3	.	3.4	4.9	i
CCCCN(c1ccccc1)c1ncnc(N)c1[N+](=O)[O-]	-25.8	.	2.1	-4.0	5.8	-17.3	-13.9	i
CCCN(CCC)c1nc2ccccc2n2c(C)nnc12	-0.3	-40.0	-16.2	-22.7	-5.9	-1.1	-5.0	i
CC(=O)c1c(C)[nH]c(C(=O)N2CCN(c3ncccn3)CC2)c1C	5.7	22.0	-8.1	-15.3	-16.4	6.8	-4.7	i
Cc1ccc(-c2nn(-c3ccc(F)cc3)cc2C(=O)NC2CCC(O)CC2)cc1 (stereo unspecified)	0.2	.	.	-11.0	.	1.4	3.7	i
COc1ccc(Cl)c(-c2cc(C(=O)Nc3ccc(C)c(NS(C)(=O)=O)c3)[nH]n2)c1	.	3.7	.	-3.0	.	-2.4	-25.0	.
CCc1ccc(CNC(=O)c2cc3c(C)nc4ccccc4c3o2)cc1	20.9	16.8	-2.9	-4.1	6.8	4.9	-27.5	i
COc1cc(NC(=O)C2CC2C)c(C(=O)O)cc1OC (stereo unspecified)	-12.4	.	16.1	-15.9	-13.3	-0.8	0.1	i
Cc1onc(-c2c(Cl)cccc2Cl)c1COC(=O)c1ccc(Cl)cc1	1.6	15.5	-11.9	.	-17.1	-1.9	-0.6	i
C=CCC(NC(=O)Cc1ccccc1)C(=O)NCCC (stereo unspecified)	-10.5	-16.4	.	-5.0	.	-2.4	1.3	.
N#CCCN(C(=O)Cn1nc(C(=O)O)c2ccccc2c1=O)c1ccccc1	5.9	4.8	2.8	3.9	-11.1	1.1	0.9	i
Cc1c(NC(=S)NC(=O)c2cccc(Cl)c2)c(=O)n(-c2ccccc2)n1C	-19.6	-3.4	7.5	-6.9	3.4	-1.2	-3.4	i
O=C(c1ccc(Cl)cc1[N+](=O)[O-])N1CCc2ccccc2C1	-16.2	0.1	7.5	.	-3.7	9.8	10.9	i
O=C(Oc1cccc(C(=O)N2CCOCC2)c1)c1ccc(Br)cc1	10.9	-12.6	-2.8	-13.8	4.8	1.1	-4.2	i
CCN1CCN(C(C)C(=O)NC2CCCCC2)CC1 (stereo unspecified)	-18.5	0.7	9.0	-9.7	8.9	2.8	5.7	i
Cn1nc(C(F)(F)F)c(-c2ccc(Br)cc2)c1NC(=O)Nc1ccc(F)cc1F	61.8	51.8	9.0	-12.0	0.0	8.6	-4.1	i
O=C(Nc1ccc(Br)cc1)c1cccc(-n2cnnn2)c1	-7.8	3.0	7.8	-1.1	3.2	6.3	2.9	.
O=C(COc1ccc2c(c1)CCC2)N1CCN(c2ccccc2F)CC1	-5.6	14.5	0.2	-19.0	-14.8	-1.1	1.4	i
COC(=O)c1cc2c(ccn2-c2ccc(F)cc2)n1CC(=O)C(C)(C)C	4.9	18.8	-4.9	.	-0.4	-3.9	-7.2	.
CC(C)(C)C(=O)N(Cc1ccc(Cl)cc1)c1cnccn1	0.6	38.9	1.3	-16.8	-6.1	1.5	-8.2	i
Cc1cc(=O)oc2c(C)c(OCC(=O)N3CC[C@@]4(O)CCCC[C@H]4C3)ccc12	13.7	.	4.6	-8.9	-1.0	-0.3	2.3	i
CCCC(=O)NCCc1cc2ccc(OC)cc2[nH]c1=O	-7.3	.	0.7	-18.1	-4.5	0.7	-0.3	i
COC(=O)c1cc([N+](=O)[O-])ccc1N1CCN(Cc2ccccc2)CC1	0.3	9.7	-16.4	-15.7	-7.6	1.1	-3.2	i
COCCCn1ccc(O)c(Cc2ccc(F)cc2)c1=O	.	.	-0.1	-3.8	-3.6	2.2	4.1	i
COc1ccccc1C(=O)O/N=C1/CCCc2c1ccc(OC)c2[N+](=O)[O-]	-12.1	.	4.9	-7.9	1.1	0.0	5.7	i
Cc1ccc(CNC(=O)C2CCC(=O)N(CCCN3CCOCC3)C2)cc1 (stereo unspecified)	9.2	7.1	-5.8	-7.1	-5.2	-2.4	0.7	i
CN(C)CCCn1c(=O)n(CCc2ccccc2)c(=O)c2c3c(sc21)CCCCC3	3.5	5.7	0.1	4.7	-11.6	-9.2	-8.5	i
Cc1cc(=O)nc2c3ccccc3n(CC(=O)NCCCN3CCCC3=O)n12	-10.0	-0.1	7.6	2.7	-0.6	-11.2	-3.7	i
[O-]/C(=C(\C(=S)NCc1ccccc1)[n+]1ccccc1)c1ccc(Cl)cc1	-0.1	-2.1	4.0	.	-2.6	0.6	5.0	i
COc1nc(Nc2ccccc2)nc(OC)n1	-6.2	21.9	.	-12.4	.	1.2	-1.7	i
COc1ccc(C(=O)N2CC(=O)Nc3ccccc32)cc1S(=O)(=O)N1CCCC1	-17.2	5.0	5.2	.	-6.4	-1.3	5.4	i
Cc1ccc(C(=O)c2nocc2C(=O)c2cccs2)cc1	-18.2	.	-5.0	.	-9.4	-6.1	5.2	i
Cc1cc(C(=O)COc2ccc(F)cc2Br)c(C)n1C	4.6	-11.3	7.2	-15.8	-0.3	-4.8	-4.4	i
COc1ccc(CCNC(=O)c2cc3c(=O)n4ccccc4nc3n(Cc3ccco3)c2=N)cc1OC	-11.6	-12.2	9.7	-1.8	87.0*	-0.4	-4.9	i	eIF4H FP inh retest=79.6*;PABP FP inh retest=26.0
C=CCn1c(SCC(=O)N2CCOCC2)nc2ccccc2c1=O	-1.8	8.4	-5.4	-7.2	-8.3	4.4	4.8	i
CC1CCc2sc3ncnc(N4CCN(CCO)CC4)c3c2C1 (stereo unspecified)	-30.2	14.4	2.6	-0.8	-6.4	-6.3	-2.5	i
CCn1cc(C(=O)N2CCc3ccccc32)c(=O)c2cc(S(=O)(=O)N3CC(C)CC(C)C3)ccc21 (stereo unspecified)	2.9	-5.7	3.9	.	-1.2	-1.9	-6.7	i
O=C(CCCNC(=O)c1ccc(Cl)cc1)Nc1cccc(F)c1	6.2	-23.1	0.6	-9.2	-0.8	5.7	6.4	i
O=C(CN1CCN(S(=O)(=O)c2ccc3ccccc3c2)CC1)Nc1ccc(N2CCOCC2)cc1	10.4	20.8	3.1	-4.4	-14.3	-0.9	4.1	i
CCOc1ccc(NC(=O)CN2CCN(C(=O)C3CCCO3)CC2)cc1 (stereo unspecified)	-19.0	-306.5	2.8	-18.2	-8.3	-0.1	3.3	i
COc1ccc(CNC(=O)c2sc(=O)n(Cc3ccc(C)cc3)c2C)cc1OC	.	25.3	.	-13.8	.	6.4	-17.9	.
The results go on.
SMILES	CSC inhib	HIV Env fusion	PABP FP inh	Yeast UUG start	eIF4H FP inh	MT1-MMP act inh	MT1-MMP act inh RFP	Rce1 inhib	others
COc1ccc(N2CCN(S(=O)(=O)c3cc(Br)cnc3N)CC2)cc1	-10.5	-10.1	.	-13.9	.	-0.5	1.4	i
O=C(COc1ccccc1)NNc1nc2ccccc2s1	9.5	-4.3	4.4	-30.5	6.2	0.7	4.7	i
C[C@H]1CN=C(N(C)C)N1CCC1CCCC1	-10.1	21.7	.	-15.6	.	1.1	6.7	.
S=C(NCc1cccnc1)NCc1cccnc1	-2.3	9.4	-2.8	-12.9	-4.0	2.4	1.9	i
O=C(COC(=O)CCCc1nc2ccccc2s1)Nc1ncc(Cl)cc1Cl	-10.2	-0.2	5.1	-10.7	12.1	-3.5	6.1	i
COc1cc2c(cc1OC)/C(=C/c1ccc(Br)cc1)C(=O)OC2	8.5	-9.0	-6.5	.	-18.3	-5.1	-2.5	i
COC(=O)c1ccc2c(c1)N(Cc1nc(-c3cccc(C)c3)oc1C)C(=O)C1CCCN21 (stereo unspecified)	.	.	12.6	.	3.1	.	.	i

The list is partial, so the mix of outcomes need not match the whole.
